Bst PK mod: modulators of Bacillus stearothermophilus pyruvate kinase; 51,000 tested, 1.2% active; partly purified Bacillus stearothermophilus pyruvate kinase, luminescence ATP production; ribose 5-phosphate activator present at AC10; Potency, µM; AID 361; in the data active means potency below about 11 µM; inconclusive means mostly about 12 µM to 25 µM; inactive means weaker than that;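 the screen sought inhibitors and activators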;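 further: potency means the concentration at half of the fitted maximal effect; scaled between full activation by ribose 5 phosphate and full inhibition by luteolin; about four in five hits inhibit and the cells do not say which; series up to 57 µM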
YjeE inh: displaces an ADP probe from E. coli YjeE (TsaE). P0AF67. purified YjeE, fluorescence polarisation of a bound ADP probe. Potency, µM. 71,000 tested, 0.05% active; active = well fitted falling curve; inconclusive = weaker or top-dose-only fall, or a rising curve; inactive = flat or poorly fitted curve;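 further: top concentration of the series not given in the record; excess ADP was the control for the full effect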
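Purified YjeE (10 uM) with BODIPY Texas Red-labeled ADP probe (2 uM); compounds pin-transferred, 15 min at room temperature. Binding inhibition read as decreased fluorescence polarization; ADP titration as control.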
The depositor's hits bear a star; i = inactive; ? = inconclusive; . = no result given. Only part of the results is shown, so the mix of outcomes need not match the whole.

SMILES	Bst PK mod	YjeE inh
COc1cc(C)nc(-n2nc(C)cc2OC)n1	.	i
CC(C)[C@@H]1C(=O)N(S(C)(=O)=O)[C@H]2CCN(C(=O)/C=C\CN3CCCCC3)[C@@H]12	.	i
CCCN(CCC)C(=O)[C@@H](CCC(=O)O)NC(=O)c1ccccc1	.	i
CCOC(=O)Nc1ccc2c(c1)N(C(=O)CCN1CCOCC1)c1ccccc1S2	>57	i
CCn1cc(C(=O)O)c(=O)c2cc(F)c(N3CCN[C@@H](C)C3)c(F)c21	.	i
Cc1cc(O)c2c(c1)C(=O)c1cccc(O)c1C2=O	.	?
C[C@@H](Cc1cccc(C(F)(F)F)c1)NCCOC(=O)c1ccccc1	.	i
OCCOCCN1CCN([C@@H](c2ccccc2)c2ccc(Cl)cc2)CC1	.	i
CC1(C)Oc2ccc(C#N)cc2[C@H](N2CCCC2=O)[C@H]1O	.	i
C[C@@]12CC3CC(N)(C1)C[C@@](C)(C3)C2	.	i
CCCCCCCCCC(=O)O	.	i
COc1cc(C(=O)NCCCCCC(=O)O)cc(OC)c1OC	>57	i
OCCOCCN1CCN(C(c2ccccc2)c2ccc(Cl)cc2)CC1 (stereo not given)	>25.6	.
CCN(CC)CCOC(=O)C(c1ccccc1)c1ccccc1	>25.6	i
CCOC(=O)Nc1ccc(NCc2ccc(F)cc2)nc1N	.	i

Random excerpt: five entries already listed.
SMILES	Bst PK mod	YjeE inh
C[C@@H](Cc1cccc(C(F)(F)F)c1)NCCOC(=O)c1ccccc1	.	i
CCn1cc(C(=O)O)c(=O)c2cc(F)c(N3CCN[C@@H](C)C3)c(F)c21	.	i
CCOC(=O)Nc1ccc(NCc2ccc(F)cc2)nc1N	.	i
CCCCCCCCCC(=O)O	.	i
CC1(C)Oc2ccc(C#N)cc2[C@H](N2CCCC2=O)[C@H]1O	.	i

Further results
SMILES	Bst PK mod	YjeE inh
Oc1ccc([C@@H]2CNCCc3c2cc(O)c(O)c3Cl)cc1	.	i
CN(C)C(=N)N=C(N)N	.	i
C[C@@]12CCC(=O)C=C1CC[C@H]1[C@H]3CC[C@](O)(C(=O)CO)[C@]3(C)CC[C@@H]12	.	i
C[C@@H]1COc2c(N3CCN(C)CC3)c(F)cc3c(=O)c(C(=O)O)cn1c23	.	i
CCN(CCCCOC(=O)c1ccc(OC)c(OC)c1)[C@@H](C)Cc1ccc(OC)cc1	.	i
CCCc1cc(C(N)=S)ccn1	>57	i
CC(C)(C(=O)c1cccnc1)c1cccnc1	.	i
O=C1CCc2cc(OCCCCc3nnnn3C3CCCCC3)ccc2N1	>25.6	i
O=C(O)[C@@H]1[C@@H]2C[C@H]3c4[nH]c5ccccc5c4CCN3C[C@@H]2CC[C@@H]1O	.	i
Nc1cc(=O)[nH]c(N)n1	.	i
CN(C)CCOC(=O)C(c1ccccc1)C1(O)CCCC1 (stereo not given)	>25.6	.
CCCN(CCC)C(=O)C(CCC(=O)O)NC(=O)c1ccccc1 (stereo not given)	>25.6	.
C[C@H]1C[C@@H]2[C@H]3CCC4=CC(=O)C=C[C@@]4(C)[C@@]3(Cl)[C@@H](O)C[C@]2(C)[C@]1(OC(=O)c1ccco1)C(=O)CCl	.	i
CC(=O)O[C@@]12CO[C@@H]1C[C@H](O)[C@@]1(C)C(=O)[C@H](O)C3=C(C)[C@@H](OC(=O)[C@H](O)[C@@H](NC(=O)OC(C)(C)C)c4ccccc4)C[C@](O)([C@@H](OC(=O)c4ccccc4)[C@H]21)C3(C)C	>25.6	.
COc1ccc([C@@H]2CNC(=O)C2)cc1OC1CCCC1	.	i

Shown with each value named: entries from further up.
C[C@@H]1COc2c(N3CCN(C)CC3)c(F)cc3c(=O)c(C(=O)O)cn1c23
  Bst PK mod = .; YjeE inh = i

CN(C)C(=N)N=C(N)N
  Bst PK mod = .; YjeE inh = i

COc1ccc([C@@H]2CNC(=O)C2)cc1OC1CCCC1
  Bst PK mod = .; YjeE inh = i

Nc1cc(=O)[nH]c(N)n1
  Bst PK mod = .; YjeE inh = i

Next records
SMILES	Bst PK mod	YjeE inh
OCC(O)CN1CCN(c2ccccc2)CC1 (stereo not given)	>25.6	.
NCCO	.	i
CN(C)CCC[C@@]1(c2ccc(F)cc2)OCc2cc(C#N)ccc21	.	i
CCCCOC(=O)c1ccc(N)cc1	.	i
Cc1nc2c([nH]1)c(=O)n(C)c(=O)n2Cc1ccco1	.	i
COc1c(O)cc2c(c1O)[C@@H]1O[C@@H](CO)[C@@H](O)[C@@H](O)[C@@H]1OC2=O	.	i
CC[C@H]1C(=O)OC[C@@H]1Cc1cncn1C	.	i
C[C@@H]1[C@H](C)CC[C@@]2(C(=O)O[C@H]3O[C@@H](CO[C@H]4O[C@@H](CO)[C@@H](O[C@H]5O[C@@H](C)[C@@H](O)[C@@H](O)[C@@H]5O)[C@@H](O)[C@@H]4O)[C@@H](O)[C@@H](O)[C@@H]3O)CC[C@]3(C)C(=CC[C@H]4[C@@]5(C)C[C@@H](O)[C@@H](O)[C@](C)(CO)[C@@H]5CC[C@@]43C)[C@@H]12	.	i
CN1CCN(c2c(F)cc3c(=O)c(C(=O)O)cn4c3c2SCC4)CC1	>57	i
CN1CCC(=C2c3ccccc3CC(=O)c3sccc32)CC1	>25.6	i
Cc1oncc1C(=O)Nc1ccc(C(F)(F)F)cc1	>25.6	i
CN1CCN(CCCN2c3ccccc3Sc3ccc(S(=O)(=O)N(C)C)cc32)CC1	.	i
NC(=O)c1ccc(-c2nc(-c3ccc4c(c3)OCO4)c(-c3ccccn3)[nH]2)cc1	.	i
O=C(NCCN1CCOCC1)c1ccc(Cl)cc1	>57	i
O=C(O)CCCCCCCC(=O)O	.	i
CN(C)CCO[C@](C)(c1ccccc1)c1ccccn1	.	i
